High-throughput results (PubChem BioAssay)
ID4 binder: binders of human ID4 protein, primary screen, biochemical, small molecule microarray, single point | DNA-binding protein inhibitor ID-4 (Homo sapiens), P47928 | Flag-ID4 binding, fluorescence F/B | calls only | actives 1.2% (n = 31,000) | AID 624137, 2012;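 active means spot signal over background at p below 0.07 in all four prints; compounds were printed on slides so no solution concentration is given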;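 further: a binder raises fluorescence above local background on the spot; about 2 pmol printed per array spot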
Target sequence (P47928 whole entry, looked up): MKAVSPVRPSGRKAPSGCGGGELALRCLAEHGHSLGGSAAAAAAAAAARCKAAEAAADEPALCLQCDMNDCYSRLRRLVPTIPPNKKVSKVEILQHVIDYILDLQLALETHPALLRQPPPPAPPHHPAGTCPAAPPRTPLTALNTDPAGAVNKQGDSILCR
Calls only; i = inactive; + = active, no number.

SMILES | ID4 binder
Cc1cc(Br)cc2c1NC(=O)C2(O)CC(=O)c1ccco1 (centres undefined) | i
C[C@@H]1CN([C@@H](C)CO)C(=O)c2cc(-c3ccc(F)cc3)cnc2O[C@@H]1CN(C)CC1CCCC1 | i
C[C@H]1CN([C@@H](C)CO)C(=O)c2cc(C#CCN(C)C)cnc2O[C@@H]1CN(C)Cc1ccccn1 | i
C[C@@H]1CN([C@@H](C)CO)C(=O)c2cc(-c3ccc(F)cc3)cnc2O[C@@H]1CN(C)C(=O)Nc1ccccc1F | +
CCCCOC(=O)c1ccc(O)cc1 | i
CCc1ccc(-n2c(C)nnc2SCC(=O)Nc2ccc(Cl)cc2Cl)cc1 | i
O=C1c2ccccc2C(=O)N1CCc1nc2ccccc2c(=O)n1Cc1ccco1 | i
CC(=O)Nc1ccc(NC(=O)CCCC(=O)O)cc1 | i
O=c1c2ccccc2nc(-c2cccs2)n1NCc1ccccc1F | i
Cc1nc2n(c(=O)c1CCN1CCC(c3noc4cc(F)ccc34)CC1)CCCC2 | i
Oc1ccc(CCCc2ccc3c(c2)OCO3)c(O)c1 | i
O=C(CSc1nc(N2CCCCC2)nc(N2CCCCC2)n1)Nc1ccc(Cl)cc1 | i
CCn1c2ccccc2c2nnc(SCC(N)=O)nc21 | i
Cc1ccc(-c2nnc(SCC(=O)Nc3cccc([N+](=O)[O-])c3)n2-c2ccccc2)cc1Cl | i
Cc1ccc(-n2c(C)nnc2SCC(=O)Nc2ccc(Br)c(C)c2)cc1C | i
CC(C)C#Cc1cnc2c(c1)C(=O)N([C@H](C)CO)C[C@H](C)[C@@H](CN(C)C(=O)Cc1ccccn1)O2 | i
CCC1=C/C(=C\N(C)c2ccccc2)C(=O)S1 | i
COc1ccc(NC(=O)C(=O)NCc2ccccn2)cc1 | i
Cc1ccc(Cl)c(Nc2ccccc2C(=O)O)c1Cl | i
COc1cc2ncnc(Nc3ccc(Cl)cc3F)c2cc1OC | i
COc1ccc(S(=O)(=O)N(C)CC(=O)Nc2ccccc2SC)cc1Cl | i
CC(=O)c1ccc(NC(=O)CC2Nc3cccc4cccc(c34)NC2=O)cc1 (centres undefined) | i
Cc1ccc(S(=O)(=O)N(CC(N)=O)c2ccc(Br)cc2)cc1 | i
COC(=O)c1ccccc1NC(=O)Cn1ccc([N+](=O)[O-])n1 | i
COCCNC(=O)C[C@@H]1C[C@H]2c3cc(NS(=O)(=O)c4ccc(F)cc4)ccc3O[C@H]2[C@H](CO)O1 | i
O=C(CSc1nc2c(c(C(F)(F)F)n1)CCCC2)N1c2ccccc2Sc2ccccc21 | i
[N-]=[N+]=Nc1ccccc1C[C@@]1(C(=O)N2CCCCC2)N=C(c2ccc(OCCCO)cc2)O[C@@H]1c1ccccc1 | i
CCN(CC(=O)Nc1ccc(OC)cc1)S(=O)(=O)c1ccc(Cl)cc1 | i
CO[C@@H]1CN(C)C(=O)c2cc(NC(=O)C3CC3)ccc2OC[C@@H](C)NC[C@H]1C | i
CN(C)c1ccc2c(c1)[C@H]1C[C@H](CC(=O)NCc3ccc4c(c3)OCO4)O[C@@H](CO)[C@H]1O2 | i
C=CCn1c(=S)[nH]c2sc3c(c2c1=O)CC(C)(C)OC3 | i
CN(C)CC(O)Cn1c2ccc(Br)cc2c2cc(Br)ccc21 (centres undefined) | i
COCC(=O)N[C@@H]1CC[C@@H](CC(=O)NCc2ccccc2OC)O[C@@H]1CO | i
C[C@H](CO)N1C[C@H](C)[C@@H](CN(C)C)Oc2cc(-c3cccc(F)c3)ccc2S1(=O)=O | i
CCOC(=O)NC(=O)CSc1nnnn1-c1ccccc1 | i
Cc1cc(OCC(=O)Nc2cccnc2)c(C)cc1Br | i
C[C@@H]1CN([C@H](C)CO)C(=O)c2cc(-c3cncnc3)cnc2O[C@H]1CN(C)C(=O)CN1CCOCC1 | i
C[C@H](CO)N1C[C@H](C)[C@H](CN(C)C(=O)c2ccccc2)Oc2ncc(/C=C/c3ccccc3)cc2C1=O | i
Cc1c(Cl)cccc1Nc1nc(N)nc(CSCCO)n1 | i
COc1ccc(NC(=O)CC(C(=O)O)N(C)C)cc1 (centres undefined) | i
C[C@@H]1CN([C@H](C)CO)C(=O)c2cc(C#CCN(C)C)cnc2O[C@H]1CN(C)C | i
CC(C)Cc1ccc(C(C)C(=O)Nc2cccc(-c3cnco3)c2)cc1 (centres undefined) | i
COc1ccc(C(=O)Nc2ccc3c(c2)OC[C@@H](C)NC[C@@H](C)[C@H](OC)CN(C)C3=O)cc1 | i
Cc1cc(Cl)c(S(=O)(=O)NC2CCCC2)cc1OCC(N)=O | i
CC(=O)Nc1ccc(NC(=O)CN(c2ccc(F)cc2)S(C)(=O)=O)cc1 | i
CC(C)C#Cc1cnc2c(c1)C(=O)N([C@@H](C)CO)C[C@H](C)[C@@H](CN(C)C(=O)c1cccc(F)c1)O2 | i
CCCNC(=O)N[C@@H]1C=C[C@H](CC(=O)N2CCN(C)CC2)O[C@H]1CO | i
CC(C)CNC(=O)[C@@H]1c2ccccc2C(=O)N(CC23CC4CC(CC(C4)C2)C3)[C@H]1c1ccc(CO)cc1 | i

At a glance, 15 of the compounds above.
SMILES | ID4 binder
C=CCn1c(=S)[nH]c2sc3c(c2c1=O)CC(C)(C)OC3 | i
CN(C)CC(O)Cn1c2ccc(Br)cc2c2cc(Br)ccc21 (centres undefined) | i
COCC(=O)N[C@@H]1CC[C@@H](CC(=O)NCc2ccccc2OC)O[C@@H]1CO | i
C[C@H](CO)N1C[C@H](C)[C@@H](CN(C)C)Oc2cc(-c3cccc(F)c3)ccc2S1(=O)=O | i
CCOC(=O)NC(=O)CSc1nnnn1-c1ccccc1 | i
Cc1cc(OCC(=O)Nc2cccnc2)c(C)cc1Br | i
C[C@@H]1CN([C@H](C)CO)C(=O)c2cc(-c3cncnc3)cnc2O[C@H]1CN(C)C(=O)CN1CCOCC1 | i
C[C@H](CO)N1C[C@H](C)[C@H](CN(C)C(=O)c2ccccc2)Oc2ncc(/C=C/c3ccccc3)cc2C1=O | i
Cc1c(Cl)cccc1Nc1nc(N)nc(CSCCO)n1 | i
COc1ccc(NC(=O)CC(C(=O)O)N(C)C)cc1 (centres undefined) | i
C[C@@H]1CN([C@H](C)CO)C(=O)c2cc(C#CCN(C)C)cnc2O[C@H]1CN(C)C | i
CC(C)Cc1ccc(C(C)C(=O)Nc2cccc(-c3cnco3)c2)cc1 (centres undefined) | i
COc1ccc(C(=O)Nc2ccc3c(c2)OC[C@@H](C)NC[C@@H](C)[C@H](OC)CN(C)C3=O)cc1 | i
Cc1cc(Cl)c(S(=O)(=O)NC2CCCC2)cc1OCC(N)=O | i
CC(=O)Nc1ccc(NC(=O)CN(c2ccc(F)cc2)S(C)(=O)=O)cc1 | i

(list continues)
SMILES | ID4 binder
C[C@H]1CN([C@@H](C)CO)C(=O)c2cccc(NC(=O)C3CC3)c2O[C@H]1CN(C)CC1CC1 | i
O=C(CSc1ncn[nH]1)NC1CC2CCC1C2 (centres undefined) | i
CN(C)C=Nc1ccc(Oc2cncc(Cl)c2)nc1 | i
N#C[C@H]1[C@@H](c2ccccc2)[C@@H](CO)N1C(=O)c1ccccc1F | i
O=C(C[C@H]1CC[C@H](NC(=O)NC2CCCCC2)[C@@H](CO)O1)NCc1ccccc1 | i
O=C(CSC1CC(=O)N(c2cc(Cl)cc(Cl)c2)C1=O)Nc1ccccc1F (centres undefined) | i
Cc1ccccc1/C=C1\Sc2ccccc2N(CC(=O)NC(C)c2ccccc2)C1=O (centres undefined) | i
CCN(CC(=O)Nc1ccc(C)c(C)c1)S(=O)(=O)c1ccc(C)cc1 | i
CC(C)CC#Cc1cnc2c(c1)C(=O)N([C@@H](C)CO)C[C@H](C)[C@@H](CN(C)Cc1ccccc1F)O2 | i
CCC(=O)Nc1ccc2c(c1)OC[C@@H](C)N(CC1CC1)C[C@@H](C)[C@H](OC)CN(C)C2=O | i
COc1cccc(-c2cnc3c(c2)C(=O)N([C@H](C)CO)C[C@@H](C)[C@@H](CN(C)CC2CCOCC2)O3)c1 | i
COc1ccc(CCNC(=S)N2CCN(C(=O)c3ccco3)CC2)cc1OC | i

Quoted from the entries so far for reference:
SMILES | ID4 binder
C[C@H]1CN([C@@H](C)CO)C(=O)c2cccc(NC(=O)C3CC3)c2O[C@H]1CN(C)CC1CC1 | i
O=C(CSc1ncn[nH]1)NC1CC2CCC1C2 (centres undefined) | i

(cont.)
SMILES | ID4 binder
CC(=O)c1ccc(NC(=O)CCCC(=O)O)cc1 | i
CCCSc1nnc(NC(=O)c2nc(SC)ncc2Cl)s1 | i
C/C=C/c1ccc2c(c1)O[C@@H](CN(C)S(C)(=O)=O)[C@H](C)CN([C@H](C)CO)S2(=O)=O | i
COCCOC(=O)C1=C(C)NC(C)=C(C(=O)OC(C)C)C1c1cccc([N+](=O)[O-])c1 (centres undefined) | i
C[C@@H]1CN([C@H](C)CO)C(=O)Cc2cc(N(C)C)ccc2O[C@@H]1CN(C)CC1CC1 | i
COc1ccc(NC(=O)N[C@H]2C=C[C@H](CC(=O)NC3CCC3)O[C@H]2CO)cc1 | i
N/C(=N\c1nc(-c2cccs2)cc(C(F)(F)F)n1)Nc1cccc(Cl)c1 | i
C[C@@H]1CN([C@H](C)CO)C(=O)c2cc(C#Cc3ccccc3)cnc2O[C@@H]1CN(C)CC1CCOCC1 | i
COc1ccccc1C#Cc1ccc2c(c1)O[C@@H](CN(C)Cc1ccncc1)[C@@H](C)CN([C@H](C)CO)S2(=O)=O | i
COC(=O)C(O)(CC(=O)Nc1cccc(SC)c1)C(F)(F)F (centres undefined) | i
C[C@@H]1CN([C@H](C)CO)C(=O)c2cc(C3=CCCCC3)cnc2O[C@@H]1CN(C)C(=O)c1cccc(F)c1 | i
C[C@H](CO)N1C[C@H](C)[C@H](CN(C)Cc2ccccc2)Oc2ncc(-c3cccnc3)cc2C1=O | i
CCCC#Cc1cnc2c(c1)C(=O)N([C@H](C)CO)C[C@H](C)[C@@H](CN(C)C)O2 | i
Cn1c(SCC(=O)c2cccc([N+](=O)[O-])c2)nnc1-c1cc2ccccc2o1 | i
COCCOC(=O)N1C(=O)[C@@]2(c3ccccc31)[C@H](c1ccc(O)cc1)N1[C@H](c3ccccc3)[C@H](c3ccccc3)OC(=O)[C@H]1[C@@H]2C(=O)N1CCc2cc(OC)c(OC)cc2C1 | i
COC(=O)c1c(-c2cc(OC)c(OC)c(OC)c2)c2ccnc(OCc3ncccn3)c2c(=O)n1Cc1ccnc(C)c1 | i
CCOc1ccc(N2C(=O)CC(SCc3nc4ccccc4[nH]3)C2=O)cc1 (centres undefined) | i
Cc1cc(N(CC(=O)Nc2cccc([N+](=O)[O-])c2C)S(C)(=O)=O)ccc1Br | i
CCOC(=O)c1c(C2COc3ccccc3O2)csc1NC(=O)c1ccco1 (centres undefined) | i
COc1cccc(C(=O)NC(NCC2CCCO2)(C(F)(F)F)C(F)(F)F)c1 (centres undefined) | i
CSc1c(-c2ccccn2)c(N)nn1C(=O)C1CCC1 | i
O=C(C[C@@H]1CC[C@H](NC(=O)c2ccc(F)cc2)[C@H](CO)O1)NCCc1ccccc1 | i
CCc1ccccc1NC(=O)COc1ccc2c(=O)c(Oc3ccccc3Cl)coc2c1 | i
C/C=C/c1ccc2c(c1)O[C@H](CN(C)CCC)[C@H](C)CN([C@@H](C)CO)S2(=O)=O | i
C[C@@H]1CN([C@H](C)CO)S(=O)(=O)c2ccc(-c3ccccc3)cc2O[C@H]1CN(C)Cc1ccccc1 | i
CC(=O)O[C@H]1CC[C@@]2(C)C(C[C@@H](OC(C)=O)[C@@]3(C)C4=CC(=O)O[C@@H](c5ccoc5)[C@]4(C)CCC23)C1(C)C (some centres undefined) | i
COc1ccc(-c2nnc3c4ccccc4c(C)nn23)cc1S(=O)(=O)N1CCOCC1 | i
C=CCN1C(=O)[C@@]2(O[C@@H](CCO)[C@H]([Si](C)(C)c3ccc(OC)cc3)[C@H]2C)c2cc(N3CCOC3=O)ccc21 | i
CCCN(C)C[C@H]1Oc2ncc(-c3ccccc3F)cc2C(=O)N([C@@H](C)CO)C[C@H]1C | i
COc1ccccc1NC(=O)CSC1CC(=O)N(c2ccc(I)cc2)C1=O (centres undefined) | i
Cc1nc(SCC(=O)Nc2ccc(C(=O)O)cc2)[nH]c(=O)c1C | i
C[C@H](CO)N1C[C@H](C)[C@@H](CN(C)Cc2ccccc2F)Oc2ncc(C3=CCCC3)cc2C1=O | i
COc1ccccc1-n1nnnc1SCC(=O)Nc1ccccc1SC | i
O=C(Nc1ccc(C(F)(F)F)cc1)Nc1ccc2c(c1)[C@H]1C[C@@H](CC(=O)N3CCc4ccccc4C3)O[C@H](CO)[C@H]1O2 | i
O=C(Nc1sc2c(c1C(=O)NCc1ccco1)CCCC2)c1ccc(F)cc1 | i
COc1ccc(NC(=O)CSc2nnc(N)s2)cc1Cl | i
CO[C@@H](CN(C)Cc1cc(F)ccc1F)[C@@H](C)CN(C(=O)Nc1ccc(C(F)(F)F)cc1)[C@H](C)CO | i
Cn1c(SCC(=O)Nc2c(Cl)cccc2Cl)nnc1-c1ccc(NC(=O)c2ccc(F)cc2)cc1 | i
O=C(NC(=S)NCc1cccnc1)c1ccc(-c2cccc(Cl)c2Cl)o1 | i
COc1cc(C)c(C(=O)Oc2cc(C)c(C(=O)O)c(O)c2C)c(OC)c1C | i
COc1ccc(C)cc1Nc1nc(N)nc(-c2oc3ccccc3c2C)n1 | i
O=C(COc1ccc([N+](=O)[O-])cc1)Nc1cccc2nsnc12 | i
Cc1ccc(-c2cnc3c(c2)C(=O)N([C@@H](C)CO)C[C@@H](C)[C@H](CN(C)CC2CCCC2)O3)cc1 | i
CNC(=O)COc1ccc(NC(=O)c2ccc(-c3nn(C)c(=O)c4ccccc34)cc2)cc1 | i
O=C(c1ccccc1)c1ccc2nc(-c3cccc(NC(=O)C4CCCO4)c3)[nH]c2c1 (centres undefined) | i
C=CCNc1oc(CC(C)C)nc1C#N | i
COC(=O)c1ccccc1NC(=O)C(C)NS(=O)(=O)c1ccc(Br)cc1 (centres undefined) | i
CN(C)CCCn1cc(C2=C(c3c[nH]c4ccccc34)C(=O)NC2=O)c2ccccc21 | i
CCn1c(SCC(=O)Nc2c(F)cc(F)cc2Br)nnc1-c1ccccc1F | i
COc1cc(NC(=O)Cn2cnc3c2c(=O)n(C)c(=O)n3C)cc(OC)c1OC | i
CN(C)CCCNC(=O)C[C@H]1CC[C@@H](NC(=O)Cc2cccnc2)[C@H](CO)O1 | i

An excerpt, so the mix of outcomes need not match the whole.
